# Calb biofilm kill – mixture kills Candida albicans biofilm cells. hit rate 0.02% among 120,000. C. albicans biofilm persisters + clotrimazole, fluorescence viability; primary screen in compound mixtures of four per well. inhibition, % at 7.6 µM;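 active means inhibition above 30.3% in the primary screen of four-compound pools, then above 30% when the compound was retested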;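 further: compounds exposed to preformed 24 h biofilms for 48 h; the number belongs to the whole pool; some results filed as inactive read as strong as hits; inactives centre near 12; 0% = biofilm with clotrimazole alone and 100% = kill control; retested singly at about 60 µM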
#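 Test system: C. albicans biofilms. Buffer or medium: RPMI/MOPS medium, pH 7.0. Timing: 48 h compound exposure at 37 °C. Technique: Alamar Blue fluorescence. Evaluation: percent inhibition of biofilm viability.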
# Starred values were filed as active, the others as inactive.
# Sample of the layout, 5 compounds:
Molecule | Calb biofilm kill
O=C(NC(=S)NNC(=O)c1ccccc1O)c1ccco1 | 21
CCCN1CN=C(Nc2nc3ccccc3o2)NC1 | 16
COc1ccc(N(CC(=O)Nc2cccc(C(F)(F)F)c2)S(C)(=O)=O)cc1 | 13
Cc1ccc(C(=O)OCC(=O)Nc2nc(-c3ccccc3)cs2)cc1NC(=O)c1ccco1 | 1
CCOC(Cn1ccc(=O)[nH]c1=O)OCC | 6

# The whole of this part, from the start:
Molecule | Calb biofilm kill
O=C(NC(=S)NNC(=O)c1ccccc1O)c1ccco1 | 21
CCCN1CN=C(Nc2nc3ccccc3o2)NC1 | 16
COc1ccc(N(CC(=O)Nc2cccc(C(F)(F)F)c2)S(C)(=O)=O)cc1 | 13
Cc1ccc(C(=O)OCC(=O)Nc2nc(-c3ccccc3)cs2)cc1NC(=O)c1ccco1 | 1
CCOC(Cn1ccc(=O)[nH]c1=O)OCC | 6
CCc1ccccc1NC(=O)CSc1nnc(-c2ccncc2)o1 | 14
Cc1ccc(N/N=C2\CC(=O)c3ccccc32)cc1Cl | -2
CC(=O)c1ccc(COC(=O)c2ccccc2NC(=O)C(C)C)cc1 | 33
COc1ccc(NC(=O)CC2SC(=O)NC2=O)cc1 (configuration not stated) | 4
Cc1cccc(C)c1NC(=O)Cn1c(CN2CCCCC2)nc2ccccc2c1=O | 16
COc1cc(OC)cc(C(=O)NC(=S)NNC(=O)[C@H]2C[C@@H]2c2ccccc2)c1 | 15
NS(=O)(=O)c1ccc(N=Nc2c(-c3ccccc3)[nH]n(-c3nc(-c4ccccc4)cs3)c2=O)cc1 | 27
COC(=O)c1ccc(/C=N/NC(=O)C(=O)NCC2CCCO2)cc1 (configuration not stated) | 16
CCCOc1nc(C)cc(COC)c1C(N)=O | 21
Cc1cc(N2CCCCC2)nc(N2CCCCC2)n1 | 10
C(#Cc1ccccc1)C[N+]1(CC#Cc2ccccc2)CCCCC1 | 20
O=C(c1ccccc1)N(Cc1nc2ccccc2c(=O)[nH]1)C1CCCCC1 | 22
Cc1ccc(C)c(NC(=O)C(Sc2nc3ccccc3c(=O)n2CC(C)C)c2ccccc2)c1 (configuration not stated) | 7
CCN(CC)C(=S)NC(=O)c1ccc(F)cc1 | -10
CSc1ccccc1C(=O)N(C)Cc1ccccc1 | 13
CCCn1nnc(NC(=O)C(C)C)n1 | 23
Cc1cccc(NC(=O)NC(=S)NC(=O)c2ccccc2)c1 | 14
CCc1ccc(/C=C2\Oc3ccc(C(=O)OC)cc3C2=O)cc1 | 11
CCC(C)C(NC(=O)C1CCC(C)CC1)C(=O)NCCCN1CCCCC1CC (configuration not stated) | 6
COC(=O)c1cc(NC(=O)c2cc(-c3ccccc3Cl)oc2C(F)(F)F)ccc1N1CCOCC1 | 11
COc1ccc(/C=C/c2nc3ccccc3n2Cc2ccccc2OC)cc1 | 16
CC(=O)OCC(=O)[C@@]12OC(C)(C)O[C@@H]1C[C@H]1[C@@H]3C[C@H](F)C4=CC(=O)C=C[C@]4(C)[C@@]3(F)[C@@H](O)C[C@@]12C | 5
COc1ccc(OC)c(NC(=O)NNC(=O)CCCOc2ccc(Cl)cc2C)c1 | 3
COc1ccc(C2CC(c3ccccc3OC(=O)/C=C/c3ccccc3)=NN2C(C)=O)cc1 (configuration not stated) | 16
Cc1ccc(NS(=O)(=O)c2ccc(N3CCN(c4ccc(O)cc4)CC3)c([N+](=O)[O-])c2)c(C)c1 | 9
Cc1csc(NC(=O)CSc2ccc(-c3ccccc3)nn2)n1 | 20
Nc1nnnn1CC(=O)N/N=C/c1cc([N+](=O)[O-])ccc1O | 6
Cc1ccccc1Nc1cccc2nonc12 | 19
Cc1ccc(N=C2NC(=O)/C(=C\c3ccsc3)S2)c(C)c1 | 4
Cc1nc2ccccc2nc1SCC(=O)c1ccccc1 | 14
CC(=O)N/N=C/c1ccc(OCCOc2ccc(Br)cc2)cc1 | 17

# Taken from above:
# Cc1ccc(NS(=O)(=O)c2ccc(N3CCN(c4ccc(O)cc4)CC3)c([N+](=O)[O-])c2)c(C)c1 in Calb biofilm kill has 9
# CC(=O)N/N=C/c1ccc(OCCOc2ccc(Br)cc2)cc1 in Calb biofilm kill has 17
# COc1ccc(OC)c(NC(=O)NNC(=O)CCCOc2ccc(Cl)cc2C)c1 in Calb biofilm kill has 3
# COc1ccc(C2CC(c3ccccc3OC(=O)/C=C/c3ccccc3)=NN2C(C)=O)cc1 (configuration not stated) in Calb biofilm kill has 16

# Going on with the list:
Molecule | Calb biofilm kill
CN=C1SC(C(=O)Nc2ccccc2Cl)CC(=O)N1c1ccc(OC(F)(F)Cl)cc1 (configuration not stated) | 2
Cc1cc(Cl)ccc1OC(C)C(=O)NCCCn1ccnc1 (configuration not stated) | 30
CN(C)S(=O)(=O)c1ccc(Cl)c(C(=O)OCC(=O)NC(=O)c2cccn2C)c1 | 3
Cc1ccc(-c2csc(NC(=S)NC(=O)c3ccco3)n2)cc1 | 5
Cc1cc(C)nc(N/N=C/c2ccccc2OCc2ccc([N+](=O)[O-])cc2)n1 | -1
C/C(CC(=O)Nc1ccc2ccccc2c1)=N\NC(=O)c1cnccn1 | 16
Cn1cccc1C(=O)C(=O)Nc1ccccc1C(F)(F)F | 7
O=C(NC(=S)Nc1ccc(CN2CCOCC2)cc1)c1ccc(-c2ccc(Cl)cc2)o1 | 24
CN(Cc1cc(=O)n2ccsc2n1)Cc1nc2ccccc2c(=O)[nH]1 | 5
CN1CCN(c2ncnc3c2c(-c2ccccc2)cn3-c2ccc(F)cc2)CC1 | 17
CCCCNC(=S)N1CCN(c2ccc(C(C)=O)cc2)CC1 | 19
CCC(=O)NC(=S)Nc1ccc(N2CCN(C(=O)c3ccc(Cl)cc3)CC2)cc1 | 18
COc1ccc(/C(=C\Nc2ccc(C)c(C)c2)C(C)=O)cc1OC | 11
CCCCOc1ccc(NC(=S)Nc2cc(C)nc(SCCCC)n2)cc1 | 9
Cc1cccc(NC(=S)N(Cc2ccco2)C(C)c2cccs2)c1 (configuration not stated) | 16
Fc1cnc(Cl)nc1N1CCN(c2ccccc2)CC1 | 12
COc1ccc(C(=O)NNC(=O)c2cc3cc([N+](=O)[O-])ccc3oc2=O)cc1OC | 7
COc1ccc(S(=O)(=O)N2CCOCC2)cc1NC(=O)COC(=O)C1COc2ccccc2O1 (configuration not stated) | 13
Cc1ccccc1OCCNC(=O)/C=C/c1ccccc1 | 21
Cc1ccc(Nc2c(F)c(F)c(F)c(F)c2C(=O)O)c(C)c1 | 11
O=C(CSc1nnc(CNC(=O)c2c(F)cccc2Cl)o1)Nc1ccc2c(c1)OCO2 | 9
O=C1C=C(c2ccccc2)OC(c2ccccc2)O1 (configuration not stated) | -15
CC(C)Cc1ccc(C(C)C(=N)N)cc1 (configuration not stated) | 23
O=C(Nc1ccc(Cl)cc1C(F)(F)F)c1ccccc1 | 23

# Reformatted: results already given
CC(C)Cc1ccc(C(C)C(=N)N)cc1 (configuration not stated)
  Calb biofilm kill = 23

O=C(Nc1ccc(Cl)cc1C(F)(F)F)c1ccccc1
  Calb biofilm kill = 23

# Continued:
canonical_smiles	Calb biofilm kill
CC(=O)Nc1ccc(S(=O)(=O)NC2(C(F)(F)F)NC(=O)N(c3ccccc3F)C2=O)cc1 (configuration not stated)	14
CCCCn1c(O)c(/C=C/C=C/C=Nc2ccccc2)sc1=S	10
CC(=O)Nc1ccc2c(c1)ncn2-c1ccccc1	15
COc1ccc(-c2nc(-c3cccs3)no2)cc1	5
COc1cc2[nH]c(=O)c(C(=O)NCCCN3CCOCC3)c(O)c2cc1OC	32
Cc1nc2ccccc2n1/C(=N\S(=O)(=O)c1ccccc1)c1ccccc1	8
O=[N+]([O-])c1ccc(/C=N/N2CCN(c3ccncc3S(=O)(=O)N3CCCCC3)CC2)cc1	11
COc1ccc(C(=O)C(CCC(CNC(C)(C)C)C(=O)c2ccc(OC)cc2)CNC(C)(C)C)cc1 (configuration not stated)	-6
Cc1ccc(NC(=O)COC(=O)c2cccnc2Cl)cc1S(=O)(=O)N1CCCCC1	7
O=C(COC(=O)C1CCN(S(=O)(=O)c2cccs2)CC1)NCc1ccc(F)cc1	3
COC(=O)CC1C(=O)NCCN1C(=S)Nc1ccccc1 (configuration not stated)	1
Cc1c(Cl)cccc1NC(=O)C1CCN(S(C)(=O)=O)CC1	8
COCCNc1cc(N)c([N+](=O)[O-])cc1[N+](=O)[O-]	14
Cc1ccc(C)c(NC(=S)N(C)CCO)c1	3
CCn1c2ccccc2c2cc(NC(=O)c3cccc([N+](=O)[O-])c3C)ccc21	0
C1CCC(Nc2nc3nonc3nc2N2CCSCC2)C1	-9
COc1ccccc1N1CCN(C(=O)CN(C)S(=O)(=O)c2ccc3c(c2)c(=O)n(C)c(=O)n3C)CC1	7
NC(=O)CC[C@@H]1NC(=O)[C@@H]2CCCN2C(=O)c2cc([N+](=O)[O-])cc(I)c2NCCC[C@@H](C(N)=O)NC1=O	10
CCOc1ccc(-c2nnn(CC(=O)NCc3ccc(C)cc3)n2)cc1	15
Cc1sc(-c2ccncc2)nc1OC(=O)c1ccc(F)cc1F	11
S=c1[nH]nc(COc2ccccc2)n1/N=C/C=C/c1ccccc1	11
COc1nc(N/N=C/c2ccc(C)cc2)nc(N2CCCCC2)n1	21
Cc1ccc(/C=C/C(=O)Nc2cccnc2)o1	8
Cc1ccc(NC(=O)CC(=O)c2ccc([N+](=O)[O-])cc2)cc1S(=O)(=O)Nc1cccc(Cl)c1	-3
Oc1c(/C=N/c2ccccn2)sc2ccccc12	18
CC(=O)c1sccc1NC(=O)c1ccccc1C(=O)O	15
COc1ccc(C(=O)c2ccc(N3CCOCC3)c([N+](=O)[O-])c2)cc1	13
O=C(CN1CCCC1)Nc1ccccc1Sc1ccccc1	13
Cc1nn(-c2ccccc2)cc1C(c1c(N)[nH]c(=S)[nH]c1=O)c1c(N)[nH]c(=S)[nH]c1=O	26
Nc1cc2c(cc1[N+](=O)[O-])OCO2	11
O=C(Cc1cccs1)N1CCN=C1SCc1ccc(Br)cc1	-9
CCCC(c1nnnn1Cc1ccco1)N1CCN(c2ccccc2)CC1 (configuration not stated)	12
COc1ccc(NC(=O)CCC2CCCCC2)cc1S(=O)(=O)N1CCCCC1	29
O=C(Nc1nnc(CCN2CCCCC2)s1)c1cccc(Cl)c1	20
COc1ccccc1CNC(=O)c1ccc(N2CCOCC2)c([N+](=O)[O-])c1	0
CCN(CC)c1ccc(/C=N/N=C(c2ccccc2)c2ccccc2)c(O)c1	14
Cc1ccc(S(=O)(=O)N2CCCCC2)cc1NS(=O)(=O)c1cccc(C(=O)O)c1	19
COc1ccc(C2=NO[C@@H]3[C@@H]4C[C@@H]([C@H]5C(=O)N(C)C(=O)[C@@H]45)[C@H]23)cc1	19
COc1ccc(NC(=O)CSc2nnc(NC(=O)c3ccccc3C(=O)O)s2)cc1	21
NC(N)=NC1=NC(=O)C(Cc2ccccc2Cl)S1 (configuration not stated)	10
O=C(Oc1ccccc1/C=C\C(=O)c1cc2ccccc2o1)c1ccccc1	13
COc1ccc(CCNC(=O)COC(=O)Cc2cc(OC)c(OC)c(OC)c2)cc1	7
O=C1CCC(=O)N1N1C(=O)C2C3c4ccccc4C(c4ccccc43)C2C1=O (configuration not stated)	16
COc1ccc(Nc2ccc(N3C(=O)CCCC3=O)cc2[N+](=O)[O-])cc1OC	8
CCn1c(CNC(=O)Cc2ccc(OC)cc2)nnc1SCC(=O)Nc1ccc(C(=O)O)cc1	13
O=C(CCNC(=O)c1ccccc1Cl)Nc1nccs1	5
COc1cc(CN2CCN(C(=O)c3ccc(-c4ccccc4)cc3)CC2)cc(OC)c1OC	7
CC1CC(C)CN(C(=O)c2ccc(CSc3nc4ccncc4[nH]3)cc2)C1 (configuration not stated)	11
COC(=O)c1ccc(C2/C(=C(\O)c3cccc(OC)c3)C(=O)C(=O)N2CCCN2CCOCC2)cc1 (configuration not stated)	6
CC1=C(C(=O)N2CCOCC2)C(c2cccc(C)c2)NC(=S)N1 (configuration not stated)	12
COc1ccccc1NC(=O)CN1CCN(c2ccccc2OC)CC1	14
Fc1ccc(-c2nc3ccccc3[nH]2)cc1	13
Cc1ccc(C(=O)Nc2cccc(C(F)(F)F)c2)cc1NC(=O)c1cnnc2ccccc12	17
O=C(NC(=O)N1CCN(c2ccc([N+](=O)[O-])cn2)CC1)c1c(Cl)cccc1Cl	2
O=C(COc1cccc(Cl)c1)Nc1nc(-c2ccc(S(=O)(=O)N3CCOCC3)cc2)cs1	15
COC(=O)c1ccc(CN2CCN(Cc3ccc(F)cc3)C(CCO)C2)cc1 (configuration not stated)	12
Cc1cc(=O)n2c(n1)NC(Nc1cccc(C)c1C)=NC2c1ccccc1 (configuration not stated)	19
Cn1c(=O)c(C(=O)NCC2CCCO2)c(O)c2ccccc21 (configuration not stated)	21
CCC(C)NC(=O)C1CCCN(c2nc(C)cc(OC)n2)C1 (configuration not stated)	19
O=C(NNc1c2ccccc2nc2ccccc12)c1cc2ccccc2cc1O	16

# (list continues)
canonical_smiles	Calb biofilm kill
Cn1c(N)c(C(=O)COC(=O)CCC(=O)c2ccc(F)cc2)c(=O)n(C)c1=O	12
O=C(CSc1nnc(CNC(=O)c2ccccc2F)o1)NCc1ccccc1	10
Cc1c(NC(=O)CC(C)C)c(=O)n(-c2ccccc2)n1C	15
Cc1nn(C)c(Cl)c1CN1CCN(C2CCCCC2)C(CCO)C1 (configuration not stated)	2
CCOc1ccc(C(=O)Nc2nc3ccccc3[nH]2)cc1OCC	11
Cc1ccc(/C=N/n2c(-c3ccccn3)n[nH]c2=S)o1	15
O=C(c1ccccc1)c1ccccn1	10
Cc1noc(NS(=O)(=O)c2ccc(NC(=O)c3ccc(OC(C)C)cc3)cc2)c1C	12
O=C(COC(=O)c1ccccc1NC(=O)c1ccco1)NC1CCS(=O)(=O)C1 (configuration not stated)	23
CN(C)S(=O)(=O)Oc1cccc(C(=O)Nc2ccc([N+](=O)[O-])cc2)c1	5
O=C(NC(=S)NCC1CCCO1)c1ccc(Cl)cc1 (configuration not stated)	1

# The list is partial; rates above refer to the full screens.
